# MARV entry inh = inhibitors of Marburg virus binding or cell entry; Marburg virus pseudotyped entry inhibition, cell reporter; control for the full effect not named in the record; about a third of the inactives were read at about 46 µM; Potency, µM (top dose mostly 37.8 µM), inactives show at the top dose activity change, negative = inhibition, hits mostly inhibitors; 300,000 compounds, 1.8% hits; AID 540276; active = well fitted inhibition curve with a large enough effect; inconclusive = small, poorly fitted or top-dose-only effect, or effect the other way; inactive = flat fitted curve, though single readings scatter; tested in HEK293 cells; about a fifth of its hits are not listed in these tables; also: % is scaled to controls: 0 for no effect and ±100 for the full control effect; luciferase read-out
# NS1 function inh = influenza NS1 inhibition. S. cerevisiae slowed by influenza A NS1, growth recovery by OD600. Potency, µM (doses to about 46.1 µM), inactives show at the highest dose activity, positive = more growth. AID 2326. 270,000 compounds, 0.4% hits; active means well fitted rising curve with a large enough effect; inconclusive means small, poorly fitted or top-dose-only effect; inactive means no such curve, though single readings can be large or run the other way; also: nearly all actives have a fitted effect of over 50% in size
#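 Growth recovery, yeast-based: influenza A NS1 expressed in S. cerevisiae causes slow growth, and suppressors are detected by OD600. The parent strain without NS1 is used as positive control.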
# Cruzain inh noDet = blocks cruzain activity in detergent-free assay; P25779; purified cruzain, Z-FR-AMC fluorescence, no detergent; Potency, µM, for inactives: max response, negative = inhibition, usual class: inhibitors; 200,000 compounds, 2.3% hits;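 also: plate controls were enzyme without inhibitor for no effect and buffer without enzyme for full effect; nearly all actives have a fitted effect of over 40% in size; top concentration of the series not given in the record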
# Target sequence (P25779 123-467 limits assumed): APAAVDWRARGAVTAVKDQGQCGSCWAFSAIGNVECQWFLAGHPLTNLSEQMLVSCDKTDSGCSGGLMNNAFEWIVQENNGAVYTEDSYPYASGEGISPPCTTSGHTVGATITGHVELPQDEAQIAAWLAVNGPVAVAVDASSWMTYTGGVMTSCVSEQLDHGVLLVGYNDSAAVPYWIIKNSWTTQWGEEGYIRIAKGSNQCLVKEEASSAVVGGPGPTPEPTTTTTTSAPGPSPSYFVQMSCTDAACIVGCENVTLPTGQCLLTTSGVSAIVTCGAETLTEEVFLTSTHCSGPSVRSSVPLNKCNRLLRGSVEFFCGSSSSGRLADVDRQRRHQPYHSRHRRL
#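 Purified cruzain at 1.5 nM, pre-incubated 15 min with compound at room temperature in 100 mM sodium acetate pH 5.5, 5 mM DTT, 0.00005% Triton X-100. Reaction started with 2 uM Z-FR-AMC; AMC fluorescence increase over 60 s gives rate.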
# SARS PLP yeast = SARS-CoV PLP inhibition in yeast. S. cerevisiae expressing SARS-CoV PLpro, growth rescue; control for the full effect not named in the record. Potency, µM (doses to about 32.9 µM), without a hit: at the highest dose activity, positive = growth rescue. AID 485353. 330,000 compounds, 0.19% hits; active means well fitted rising curve with a large enough effect; inconclusive means small, poorly fitted or top-dose-only effect; inactive means no such curve, though single readings can be large or run the other way; also: 0% is about no effect; nearly all actives have a fitted effect of over 55% in size; growth read by luminescence after 48 h
# LASV entry inh = Lassa virus entry inhibition; Potency, µM (titrated, usually from 37.9 µM), for the others: at the highest dose activity change, negative = inhibition, actives largely listed as inhibitors; Lassa virus pseudotype entry inhibition, cell reporter; control for the full effect not named in the record; AID 540256; 300,000 compounds, 1.2% hits; active means well fitted inhibition curve with a large enough effect; inconclusive means small, poorly fitted or top-dose-only effect, or effect the other way; inactive means flat fitted curve, though single readings scatter; tested in HEK293 cells; also: % is scaled to controls: 0 for no effect and ±100 for the full control effect; nearly all actives have a fitted effect of over 50% in size; luciferase read-out
# Cruzain inh Det = inhibitors of Trypanosoma cruzi cruzain with detergent; Potency, µM, for inactives: max response, negative = inhibition, actives largely listed as inhibitors; P25779; 200,000 compounds, 0.43% hits; purified cruzain, Z-FR-AMC fluorescence, 0.01% Triton;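 also: plate controls were neutral wells for no effect and buffer without enzyme for full effect; nearly all actives have a fitted effect of over 40% in size; top concentration of the series not given in the record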
#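 Compounds were screened in titration against cruzain (1.5 nM) with 0.01% Triton X-100 to counter colloidal aggregation. Activity was the AMC fluorescence increase over 60 s after adding 2 uM Z-FR-AMC at pH 5.5.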
# StopGo reporter = lowers the luciferase signal of an FMDV 2A StopGo reporter; human cells with a luciferase reporter of 2A StopGo recoding; control for the full effect not named in the record; Potency, µM (series often up to 57.9 µM), for inactives: at the top dose signal change, negative = less light; 410,000 compounds, 1.2% hits; AID 1159524; active = well fitted falling curve with a large enough effect; inconclusive = small, poorly fitted or top-dose-only effect; inactive = no such curve, though single readings can be large or run the other way; tested in HEK293T cells; also: % is scaled to controls: 0 for no effect and ±100 for the full control effect; nearly all actives have a fitted effect of over 45% in size; luciferase light after 4 h
# RE007 growth inh = less growth of the S. pombe RE007 Vpr strain; Potency, µM (titrated, usually from 92.2 µM), without a hit: at the highest dose activity change, negative = less growth; S. pombe RE007 Vpr strain, BacTiter-Glo ATP luminescence, 24 h; control for the full effect not named in the record; 360,000 compounds, 0.21% hits; active = well fitted falling curve with a large enough effect; inconclusive = small, poorly fitted or top-dose-only effect; inactive = no such curve, though single readings can be large or run the other way;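 also: % is scaled to controls: 0 for no effect and ±100 for the full control effect; nearly all actives have a fitted effect of over 50% in size; the assay follows cell death caused by Vpr and the record does not say whether a fall means rescue or toxicity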
#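 Fission yeast RE007 carrying one integrated HIV-1 vpr copy, seeded at OD 0.01 in PMG+AL medium with 23 nL pinned compound. Grown 24 h at 30 degrees; viability read by BacTiter-Glo luminescence after 5 min.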
# * = called active by the depositor; u = inconclusive; x = no result given; & = joins results of further samples; [ ] = dose if it differs, or a comment. Unless noted, calls follow the shape of the dose curve; as a rule, active = well fitted curve in the direction sought with a large enough effect; inconclusive = small, poorly fitted or top-dose-only effect, or another doubt; inactive = no such curve, though single readings can be large; an effect the other way counts as inactive or inconclusive. Potency is read from the fitted curve at half-maximal effect.
SMILES,MARV entry inh,NS1 function inh,Cruzain inh noDet,SARS PLP yeast,LASV entry inh,Cruzain inh Det,StopGo reporter,RE007 growth inh
Cn1c(=O)c2cc(S(=O)(=O)NC(C(=O)N3CCCCCC3)c3ccccc3)ccc2n(C)c1=O (stereo unspecified),x,-44.1%,12.4%,7.1%,x,1.2%,0.0%,-11.3%
CC(=O)Nc1ccc(S(=O)(=O)Nc2cccc(-c3ccc(N4CCCCCC4)nn3)c2)cc1,x,x,-9.8%,x,-23.9%[46.1 µM],-5.8%,50.0%[activator],x
COc1ccc2c(c1)nc(NCCO)n2C,1.6%,3.55µM*,-5.4%,15.8%,8.8%,-5.0%,-6.1%,13.0%
CNC(=O)[C@@]1(Cc2ccccc2)C=C[C@@H](C)N1C(=O)OC,x,x,1.0%,x,x,4.7%,-8.8%,11.2%
COCCn1c(SCC(=O)N2CCCC2=O)nc2sc(C)c(C)c2c1=O,-0.2%[46.1 µM],x,x,-0.7%,3.8%,x,-8.7%,-2.9%
COc1cc(-c2nc3ccccn3c2/N=C/c2ccccc2)ccc1O,10.9%,16.8%,6.5%,-5.1%,10.5%,-2.7%,x,-1.5%
CN(Cc1ccccc1)C(=O)COc1cccnc1[N+](=O)[O-],27.7%[46.1 µM],4.2%,x,-0.1%,24.0%[46.1 µM],x,13.3%,3.7%
CCc1ccc(C2CC(c3ccccc3C)n3nc(N)nc3N2)cc1 (stereo unspecified),0.2%,-3.1%,-11.4%,-12.1%,-14.9%,-2.6%,-23.9%,0.5%
CCOc1cccc(C2C(C(=O)c3ccc(C)o3)=C(O)C(=O)N2c2nnc(C)s2)c1 (stereo unspecified),u,x,x,x,16.2%,x,10.5%,-3.0%
Cc1cccc(NS(=O)(=O)c2cccc(C(=O)NCCCN3CCOCC3)c2)c1,4.0%[46.1 µM],x,x,-6.6%,3.0%,x,5.6%,-2.3%
CCN(CC)S(=O)(=O)c1cc(C(=O)OCC(=O)Nc2cccc(S(=O)(=O)N(C)C)c2)ccc1F,0.0%[46.1 µM],x,x,-0.2%,14.0%[46.1 µM],x,-15.2%,0.0%
CCCCNC(=O)OC1CCS(=O)(=O)C1 (stereo unspecified),-3.0%[46.1 µM],9.7%,7.8%,2.8%,2.1%,2.5%,9.1%,15.3%
N#CC[n+]1cc(-c2ccc(Cl)cc2)n2c1CCC2,16.3%,10.0%,6.6%,-9.4%,-6.1%,3.0%,9.7%,-9.2%
O=C(NNC(=S)Nc1ccccc1)c1cccs1,-14.5%,4.1%,-5.2%,-5.0%,2.3%,-1.7%,52.1%[activator],12.7%
Fc1cccc(NC(=S)N2CCCCC2)c1,10.1%[46.1 µM],-3.6%,-1.3%,11.2%,7.0%,6.7%,23.9%,-18.3%
CCOc1ccc(/C=C/C(=O)Nc2sc3c(c2C(=O)OC)CCCC3)cc1,6.6%[46.1 µM],x,-6.7%,x,-0.3%[46.1 µM],u,13.8%,x
CCSc1nc2ccccc2n1CC(=O)N1CCCCC1,2.4%,-7.4%,-5.5%,-8.8%,7.1%,-2.8%,-4.8%,-1.3%
O=C(N[C@@H]1CCC(=O)N(CC[C@H](Sc2ccccc2)c2ccccc2)CC1)OCc1ccccc1,x,7.1%,x,4.5%,x,x,0.0%,-22.6%
COc1ccc(-c2nc3c(-c4ccc(F)cc4)cnn3cc2C)cc1F,-6.1%[46.1 µM],0.7%,x,1.2%,u,x,u,23.1%
CCN(CC)S(=O)(=O)c1ccc(Cl)c(C(=O)NC2CCCC2)c1,2.1%,-2.2%,2.1%,4.1%,5.5%,-0.3%,-6.9%,19.0%
COc1ccc(NC(=O)CCN2CCN(Cc3ccccc3)CC2)c(OC)c1,x,-0.1%,x,7.0%,x,x,0.1%,-12.4%
O=C(CNC(=O)c1ccc(Br)o1)NCc1cccc(Cl)c1,-22.8%[46.1 µM],11.2%,x,1.6%,-11.2%[46.1 µM],x,14.0%,5.2%
O=C(C1CCN(Cc2ccc(OCc3ccccc3)cc2)CC1)N1CCCC1,0.0%,-32.6%,4.5%,-13.5%,-7.4%,2.3%,18.4%,-4.4%
Cc1ccc(-n2nc(C)c3c(C(=O)Nc4ccc(C)cc4Cl)cc(C)nc32)cc1,x,x,-10.7%,x,1.1%[46.1 µM],-2.5%,-30.6%,x
COc1ccccc1NC(=O)Cn1cnc2c(cnn2-c2ccc(C)c(C)c2)c1=O,20.4%,3.0%,15.5%,-8.1%,8.4%,1.8%,u,-20.4%
COC(=O)c1ccc(N(C(=O)c2ccco2)C(C(=O)NC2CCCC2)c2ccco2)cc1 (stereo unspecified),8.4%,-0.7%,-2.4%,-2.3%,-19.9%,-2.4%,10.0%,5.5%
N#Cc1ccc(C(=O)Nc2ccccc2-c2nc3ccccc3s2)c(F)c1,-6.8%[46.1 µM],x,-7.9%,x,-8.4%[46.1 µM],0.1%,6.0%,x
Cc1nc2nc(SCC(=O)NC3CCCCC3)nn2c(C)c1Cc1ccccc1Cl,u,x,u,x,17.4%[46.1 µM],-6.5%,-5.0%,x
CCOC(=O)c1c(C)nsc1NC(=O)c1ccco1,1.4%[46.1 µM],-2.4%,x,-4.2%,11.7%[46.1 µM],x,-4.6%,11.3%
Cc1c(CCO)c(=O)[nH]n1S(=O)(=O)c1ccc([N+](=O)[O-])cc1,19.2%[46.1 µM],7.9%,x,8.7%,-4.7%[46.1 µM],x,u,-10.2%
O=C(O)C(C/C(=N/O)c1ccc(Br)cc1)P(=O)(c1ccccc1)c1ccccc1 (stereo unspecified),13.8%,2.7%,x,1.0%,7.3%,x,9.3%,8.7%
CC12C=CC3(O1)C(C(=O)N(c1ccccc1)C3C(=O)NC1CCCC1)C2C(N)=O (stereo unspecified),10.9%,5.8%,-0.4%,10.8%,-3.6%,-0.7%,15.9%,6.1%
CC(=C/c1ccc(C(C)C)cc1)/C=N/NC(=O)Cn1nc(C)cc1C,3.8%,8.6%,19.4%,24.8%,-1.8%,-6.3%,-4.8%,-0.7%
COc1cccc2c1C1COC3C4CC(C(=O)O)C(C(C2)N13)N4C (stereo unspecified),u,x,x,x,u,x,-13.9%,-6.6%
O=CNCC(=O)NC1CCCCCC1,4.0%,7.4%,-4.0%,5.4%,12.3%,1.9%,x,-9.1%
Cc1ccc(C(=O)COC(=O)CCN2C(=O)C3C4CCC(C4)C3C2=O)cc1[N+](=O)[O-] (stereo unspecified),4.8%[46.1 µM],-22.8%,x,-1.2%,-9.0%[46.1 µM],x,-23.4%,-1.4%
CC1=C(Sc2ccccn2)C(=O)NC(C)(C)C1,11.6%,4.9%,16.9%,3.1%,-1.4%,-3.5%,4.1%,4.2%
Cc1c(C(=O)N2CCCCC2)c(S(=O)(=O)NCCc2ccccc2)c(C)n1C,x,0.6%,x,-2.7%,x,x,59.9%[activator],15.6%
COc1ccc(C2=Nn3c(nnc3-c3cc(C)[nH]n3)SC2)cc1,u,-0.6%,x,0.8%,-28.2%,x,-5.3%,4.2%
Cc1cccc(NS(=O)(=O)c2ccc(C3CCCCC3)cc2)c1,u,-5.1%,7.9%,-40.4%,-22.0%,-6.0%,-7.9%,u
CC1CCCCC1NC(=O)/C(C#N)=C/c1ccc(F)c(F)c1 (stereo unspecified),2.9%,-5.6%,3.8%,-13.7%,13.3%,-3.6%,-11.9%,-5.5%
COc1ccc(N(CC(=O)NC2CCCCCC2)S(=O)(=O)c2ccccc2)cc1Cl,u,-2.8%,x,1.0%,-22.7%,x,-8.7%,5.6%
Cc1ccccc1NC(=O)c1cccc(N2C(=O)C3C4CCC(C4)C3C2=O)c1 (stereo unspecified),0.7%,6.7%,4.8%,1.5%,0.9%,9.0%,-15.2%,-3.8%
O=C1COc2ccc(S(=O)(=O)NCc3ccc(Cl)cc3)cc2N1,x,-3.1%,x,-1.9%,x,x,85.2%[activator],-9.2%
Cc1ccc(OCCNC(=O)C2CCCCC2)cc1,u,x,x,-0.7%,15.6%,x,-2.0%,9.9%
CCOc1ccccc1C1C(C#N)=C(N)Nc2onc(-c3ccccc3)c21 (stereo unspecified),4.4%,9.8%,-21.6%,-6.7%,1.2%,2.6%,0.0%,5.3%
COc1ccc(S(=O)(=O)N2CCC(C(=O)NCCC(=O)Nc3cccc(OC)c3)CC2)cc1,x,-3.8%,x,-8.9%,x,x,-2.8%,3.9%
O=C(Nc1cccc(-c2ccc3nncn3n2)c1)c1ccco1,-13.9%[46.1 µM],x,x,-0.7%,14.3%,x,-14.1%,-9.6%
Cc1ccc(NC(=O)CSc2ncc(-c3ccccc3)[nH]2)cc1,u,x,-9.8%,x,11.2%[46.1 µM],-7.0%,16.8%,x
CC1CCN(CCC(=O)N/N=C/c2ccc([N+](=O)[O-])cc2)CC1,-6.6%[46.1 µM],x,x,2.4%,x,x,-2.4%,-1.2%
Cc1ccccc1C(=O)Nc1c(C(=O)N2CCN(C)CC2)cnn1-c1ccccc1,13.3%,x,x,x,-15.8%,x,-6.2%,2.1%
O=C(CSc1nnc(-c2ccccc2)n1Cc1ccccc1)N1CCCC1,10.6%[46.1 µM],3.1%,-0.7%,-4.6%,0.3%,4.3%,0.7%,3.5%
O=C1c2cc(S(=O)(=O)NCCO)ccc2-c2ccc(S(=O)(=O)NCCO)cc21,0.1%[46.1 µM],x,x,0.9%,24.4%,x,-7.8%,-11.8%
COc1ccc(CSc2nnc(C)s2)cc1F,12.6%[46.1 µM],x,x,-4.4%,-6.1%[46.1 µM],x,13.1%,10.5%
CCC(=O)Nc1cccc(NC(=O)c2ccc(C)cc2Cl)c1,-1.2%,-0.9%,x,0.5%,1.6%,x,57.7%[activator],-9.0%
CC(C)Cc1nnc(NC(=O)CCC(=O)N2CCN(c3ccccn3)CC2)s1,24.9%,-1.5%,-11.5%,-1.9%,12.2%,-3.5%,14.8%,-0.2%
Cc1ccc(S(=O)(=O)Cn2nnnc2C(C(C)C)N2CCN(Cc3ccco3)CC2)cc1 (stereo unspecified),-8.3%&-28.2%,-12.6%,4.6%,1.6%,-3.8%,6.4%,-15.9%,-1.7%
